FBPA Giardia inh = Giardia lamblia aldolase inhibition | hit rate 0.71% among 290,000 | Potency, µM (doses to about 59.6 µM), without a hit: at the highest dose activity, negative = inhibition, most hits filed as inhibitors | A8B2U2 | purified Giardia FBPA; also: nearly all actives have a fitted effect of over 55% in size
Target sequence (A8B2U2 whole entry, looked up): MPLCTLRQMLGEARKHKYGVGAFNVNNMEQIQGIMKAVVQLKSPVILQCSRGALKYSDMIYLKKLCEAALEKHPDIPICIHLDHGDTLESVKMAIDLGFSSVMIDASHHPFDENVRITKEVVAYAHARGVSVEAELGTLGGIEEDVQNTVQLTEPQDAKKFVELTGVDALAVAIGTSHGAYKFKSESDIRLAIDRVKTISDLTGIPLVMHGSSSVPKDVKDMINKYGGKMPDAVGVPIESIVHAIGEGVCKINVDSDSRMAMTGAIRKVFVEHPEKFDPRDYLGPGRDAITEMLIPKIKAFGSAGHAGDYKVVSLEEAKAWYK
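40 nM FBPA preincubated 10 min at RT with compound (up to 57.5 uM final), then substrate plus GAPDH/TPI/NAD/arsenate coupling and diaphorase/resazurin added. Fluorescence read after 20 min at RT, 525/598 nm.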
Pf growth 48h = P. falciparum growth inhibition at 48 hours (one generation); AID 504832; P. falciparum luciferase growth in erythrocytes, 48 h; Potency, µM (series often up to 28.7 µM), inactives show at the top dose activity change, negative = inhibition, hits mostly inhibitors; hit rate 5.9% among 310,000
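First compound was added to culture medium, then infected red cells at 0.1% parasitemia and 2% hematocrit (final). After incubation at 37 C under 5% CO2, luciferase detection reagent was dispensed and light output recorded.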
Pf growth 96h = P. falciparum growth inhibition at 96 hour, primary screen for plastid delayed-death inhibitors. P. falciparum luciferase reporter growth, 96 h. Potency, µM (doses to about 28.7 µM), for inactives: top-dose activity change, negative = inhibition, most hits filed as inhibitors. hit rate 6.9% among 320,000
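96 h incubation, 37 C, 5% CO2, of luciferase-reporter P. falciparum-infected RBCs (2% hematocrit, 0.05% parasitemia final) with test compounds; endpoint luminescence.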
HCV inhibitor = HCV inhibition | hit rate 3.4% among 340,000 | Huh7.5.1 HCVcc-Cre infection, luciferase reporter, 44 h | AID 651820 | Potency, µM (series often up to 41.8 µM), without a hit: top-dose activity change, negative = inhibition, usual class: inhibitors
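Infectious HCV cell culture screen: compound-treated cells (1,000/well, pre-plated 4 h) are infected with HCVcc-Cre at roughly 0.5 moi and grown 44 h. Infection is quantified by luciferase signal after 15 min substrate incubation at room temperature.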
The depositor's hits bear a star; ? = inconclusive; . = no result given; & = joins results of further samples; [ ] = remark or other dose. Calls follow the shape of the dose curve; as a rule, active = well fitted curve in the direction sought with a large enough effect; inconclusive = small, poorly fitted or top-dose-only effect, or another doubt; inactive = no such curve, though single readings can be large; an effect the other way counts as inactive or inconclusive. % is scaled to controls: 0 for no effect and ±100 for the full control effect; potency is read from the fitted curve at half-maximal effect. An excerpt; count on the stated rates, not on these rows.

# | Compound | FBPA Giardia inh | Pf growth 96h
1 | C[C@@](N)(Cc1ccc(O)cc1)C(=O)O | -1.4% | .
2 | CC(C)CN(C[C@@H](O)[C@H](Cc1ccccc1)NC(=O)O[C@H]1CCOC1)S(=O)(=O)c1ccc(N)cc1 | 6.0% | -11.3%
3 | CC1(C)SC2C(NC(=O)C(NC(=O)N3CCNC3=O)c3ccccc3)C(=O)N2C1C(=O)O (stereo unspecified) | 7.7% | .
4 | C[C@]12CCC3C(CC[C@H]4CC(=O)CC[C@]34C)C1CCC2=O (stereo partly specified) | . | .
5 | O=C(NNC(=O)C1CC=CCC1)c1ccccc1Br (stereo unspecified) | -15.0% | ?
6 | NCCC(O)(P(=O)(O)O)P(=O)(O)O | -0.2%&8.7% | 27.3%
7 | CC1(C)S[C@@H]2[C@H](NC(=O)C(NC(=O)N3CCNC3=O)c3ccccc3)C(=O)N2[C@H]1C(=O)O (stereo partly specified) | -24.2% | -11.6%
8 | C[C@]12CCC3c4ccc(O)cc4CCC3C1CC(O)C2O (stereo partly specified) | 4.0% | .
9 | CC(C)(O)C(Cl)(Cl)Cl | 2.2%&4.7% | 1.69µM*
10 | COC(=O)Nc1nc2ccc(Sc3ccccc3)cc2[nH]1 | -1.7% | 148.2%[activator]
11 | N#CCSc1nnc2ccc3ccccc3n12 | 0.0% | 27.5%
12 | C[C@@H]1C[C@H]2[C@@H]3CCC4=CC(=O)C=C[C@]4(C)[C@@]3(F)[C@@H](O)C[C@]2(C)[C@@]1(O)C(=O)CO | 0.0% | ?

# | Pf growth 48h | HCV inhibitor
1 | . | .
2 | ? | .
3 | . | .
4 | . | 12.2%
5 | 26.2% | 9.2%
6 | 3.0% | .
7 | -10.2% | 8.6%
8 | . | .
9 | 2.69µM* | .
10 | 87.3%[activator] | ?
11 | 41.0%[activator] | 11.9%
12 | 0.7%&-0.1% | 9.6%&4.9%

(further entries)
# | Compound | FBPA Giardia inh | Pf growth 96h
13 | O=C(CSc1nc2ccccc2s1)N1CCOCC1 | 2.1% | ?
14 | CCCn1c(=O)[nH]c(=O)c2[nH]cnc21 | -2.7%&1.0% | 2.2%&-19.1%
15 | Cn1cc(Br)c(C(=O)N2CCc3ccccc32)n1 | 7.3% | 17.7%
16 | S=C(NCCc1ccccc1)NCc1cccs1 | 5.1% | 27.9%
17 | CCCCCn1cnc2sc(CC)cc2c1=O | -4.1% | 200.7%[activator]
18 | CC(O)(CS(=O)(=O)c1ccc(F)cc1)C(=O)Nc1ccc(C#N)c(C(F)(F)F)c1 (stereo unspecified) | 5.3% | .
19 | C[C@]12CC[C@H](O)CC1=CCC1C2CC[C@]2(C)C(=O)CC[C@@H]12 (stereo partly specified) | 3.2%&7.2%&22.1% | ?
20 | C[N+](C)(C)CCCCCCCCCC[N+](C)(C)C | -10.3% | 0.262µM*
21 | Cc1cccc(OCC(=O)Nc2cccc(O)c2)c1 | 0.6% | ?
22 | O=CC(O)C1OC(=O)C(O)C1O (stereo unspecified) | . | .
23 | C[C@]12CCC(=O)C=C1CC[C@@H]1[C@@H]2C(=O)C[C@@]2(C)[C@H]1CC[C@]2(O)C(=O)CO | -8.8%&-2.0% | -22.7%
24 | CC(C)(C(=O)O)c1ccc([C@H](O)CCCN2CCC(C(O)(c3ccccc3)c3ccccc3)CC2)cc1 | -6.0% | -2.6%

# | Pf growth 48h | HCV inhibitor
13 | 43.6%[activator] | -1.1%
14 | -6.9%&8.6% | 0.6%[8.37 µM]
15 | 25.4% | 22.4%
16 | 48.5%[activator] | -2.0%
17 | 169.3%[activator] | 1.9%
18 | . | .
19 | -25.0% | .
20 | 0.657µM* | -0.2%[8.37 µM]
21 | 223.7%[activator] | -2.9%
22 | . | -3.4%
23 | 1.9% | -16.4%[8.37 µM]
24 | -6.8% | -6.9%

(next part)
# | Compound | FBPA Giardia inh | Pf growth 96h
25 | O=C(CCC1CCCCC1)NCc1ccc(F)cc1 | 5.3% | ?
26 | CN(C)C(=O)Oc1ccc(NC(=O)N2CCOCC2)cc1 | 0.7% | 3.29µM*
27 | O=C1OC(Cc2ccccn2)C(=O)C1=C1SCCS1 (stereo unspecified) | -4.1% | 13.1%
28 | COc1ccccc1N=C1SCCCN1C | 3.0% | -24.4%
29 | O=c1c2cc(N3CCOCC3)ccc2[nH]c(=S)n1Cc1ccccn1 | ? | 58.2%[activator]
30 | O=C(Nc1nc2ccccc2s1)C1=NN(c2ccccc2)C(=O)CC1 | -7.1% | 7.5%
31 | CC(=O)Oc1c(C)c(C)c2c(c1C)CCC(C)(CCCC(C)CCCC(C)CCCC(C)C)O2 (stereo unspecified) | 8.6%&9.3%&3.6% | 110.1%[activator]
32 | CC[C@H](CO)NCCN[C@@H](CC)CO | -1.3%[21.7 µM] | 9.8%[12.8 µM]

# | Pf growth 48h | HCV inhibitor
25 | 45.2%[activator] | 3.5%
26 | 0.4% | 9.2%
27 | 5.2% | 8.7%
28 | -1.2% | -5.3%
29 | 20.7% | 6.4%
30 | -17.2% | 3.3%
31 | 0.4% | 38.5%
32 | 1.5%[12.8 µM] | .

Compound activity as filed in PubChem BioAssay.
